Screens (PubChem)
INS promoter inh: TRM-6 insulin promoter activity inhibition; TRM-6 cells (human fetal islet line), insulin promoter-eGFP reporter, imaging; reporter expression induced with tamoxifen; hit rate 0.9% among 130,000; inhibition, % at 2 µM;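 active means inhibition above the mean plus 3 SD, with well images judged a real hit on visual review, cut at about 60% in these data, passing the limit was not always enough; inconclusive means inhibition over the cutoff but images rejected on review; inactive means inhibition not above the cutoff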
PKD1 inh: PKD1 (human) kinase inhibition; PKD1 kinase fluorescence polarization assay; inhibition, %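 (about 10 µM by stock and volumes)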; hit rate 0.056% among 200,000;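 active means inhibition of 50% or more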;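 further: controls were vehicle for no effect and a reference inhibitor for full effect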
HSV replic up: HSV replication enhancement; HSV replication augmentation in cells, fold increase; maximum fold increase; hit rate 0.005% among 220,000; AID 1956;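 active means peak rise of 1.5-fold or more in the series; inconclusive means self-fluorescent or not available for retest; tested in PC3 cells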;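 further: first round at 10 µM; read as green reporter fluorescence; hits show the peak of a series up to 25 µM; 1 = signal of infected wells without compound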
GALR2 agonist: agonists of human galanin receptor 2 (GALR2); O43603; GALR2-expressing cells, agonist activation read-out; activation, %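 (tested at 5 µM)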; hit rate 0.48% among 140,000;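 active means above mean plus 3 SD of all compounds, about 5% in these data, not always enough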;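 further: 0% = vehicle buffer wells and 100% = reference agonist at full effect; tested in CHO reporter cells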
Target sequence (O43603 whole entry, looked up): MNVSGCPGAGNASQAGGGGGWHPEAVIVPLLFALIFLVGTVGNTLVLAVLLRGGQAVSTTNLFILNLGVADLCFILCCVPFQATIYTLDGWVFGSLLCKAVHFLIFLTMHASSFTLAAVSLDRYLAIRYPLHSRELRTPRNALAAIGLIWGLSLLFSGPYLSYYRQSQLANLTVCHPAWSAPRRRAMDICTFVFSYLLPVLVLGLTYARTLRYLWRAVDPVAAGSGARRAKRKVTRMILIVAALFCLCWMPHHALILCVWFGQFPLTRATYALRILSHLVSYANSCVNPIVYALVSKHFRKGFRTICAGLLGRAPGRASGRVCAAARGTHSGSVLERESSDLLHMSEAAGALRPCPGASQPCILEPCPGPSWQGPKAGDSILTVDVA
RGS16-Gao: RGS16-Galphao interaction regulator (human). O15492+P09471. bead-based flow cytometry RGS16-Galphao binding, fluorescence; actives lie on both sides. binding response (% of control), % at 10 µM. hit rate 0.38% among 220,000. AID 1441;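 active means below 25% or above 175%, edge rows of some plates excepted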;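 further: Galphao activated by GDP with aluminum fluoride before binding; 100% = wells without compound and 0% = beads without RGS; some results beyond the cut were filed as inactive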
Target sequence (O15492 whole entry, looked up): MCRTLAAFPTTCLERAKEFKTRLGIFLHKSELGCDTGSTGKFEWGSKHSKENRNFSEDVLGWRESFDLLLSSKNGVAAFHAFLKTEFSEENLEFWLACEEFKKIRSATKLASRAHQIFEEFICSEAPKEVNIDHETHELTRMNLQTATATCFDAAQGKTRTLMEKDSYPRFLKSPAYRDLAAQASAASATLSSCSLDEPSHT
Target sequence (P09471 whole entry, looked up): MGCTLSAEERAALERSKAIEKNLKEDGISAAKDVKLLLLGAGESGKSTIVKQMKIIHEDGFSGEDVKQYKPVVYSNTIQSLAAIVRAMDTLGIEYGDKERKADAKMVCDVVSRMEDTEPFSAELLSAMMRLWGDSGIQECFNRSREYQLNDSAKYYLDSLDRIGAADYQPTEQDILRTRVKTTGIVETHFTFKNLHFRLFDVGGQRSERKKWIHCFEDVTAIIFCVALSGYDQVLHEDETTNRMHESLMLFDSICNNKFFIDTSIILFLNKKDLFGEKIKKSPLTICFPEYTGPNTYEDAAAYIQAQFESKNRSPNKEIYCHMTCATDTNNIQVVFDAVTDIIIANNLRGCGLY
INS promoter inh cell count: recorded beside INS promoter inh, whose call it bears; normalized cell count, %; measured here: cell count, toxicity; reference of the scale not given here;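 cells exposed to compound for 48 h; stained nuclei by imaging scaled within each plate; lower means fewer cells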
HSV replic up primary fold: also measured in HSV replic up; calls as there; fold increase; compound at 10 µM; measured here: primary screen fold increase 10 uM; tested in PC3 cells;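 GFP signal in the first replicate; 1 = infected wells without compound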
An asterisk follows results filed as active; i = inactive; ? = inconclusive; . = not tested or not shown. Compounds as they come; 1.3% or so of the library scored in one or more.

SMILES	INS promoter inh	INS promoter inh cell count	PKD1 inh	HSV replic up	HSV replic up primary fold	GALR2 agonist	RGS16-Gao
CCN(CC)CCN1C(=O)C(=O)/C(=C(/O)c2cnn(-c3ccccc3)c2C)C1c1ccc(C)o1 (centres undefined)	-14	80	-4	i	0.96	-2.8	100
CCOC(=O)N1CCN(C(=O)CSc2nnc(COc3ccc(Cl)cc3)o2)CC1	.	.	-9	i	0.9	-1.9	99
O=C(c1ccc(Cl)cc1)N1CCCC(c2ccccc2)=N1	.	.	1	i	0.81	-2.2	98
CC(C)(C)NC(=O)C(=O)N/N=C/c1ccc(F)cc1	-17	109	-13	i	0.98	.	103
O=C(NCC1CCCO1)c1ccccc1-c1nc(-c2ccccc2)no1 (centres undefined)	.	.	-7	i	1	-0.8	102
Cc1ccc(C(=O)C[n+]2cc(Br)cc(Br)c2)cc1[N+](=O)[O-]	.	.	-1	i	0.96	-0.4	93
Cc1cc(C(c2nnnn2Cc2ccccc2)N2CCOCC2)c(C)n1-c1ccc2c(c1)OCO2 (centres undefined)	18	120	-11	i	0.9	-0.5	95
CCOC(=O)CCCCCN(Cc1ccccc1)S(=O)(=O)c1ccc([N+](=O)[O-])cc1	.	.	-4	i	0.98	-0.9	99
COc1ccccc1CNC(=O)c1cccc(N(C)C)c1	3	120	-3	i	0.94	-4.0	102
CC1(C)CC(=O)CC(C)(C)N1OC(=O)c1ccncc1	-5	86	-8	i	1.1	-3.2	106
CCOc1cc(S(=O)(=O)NC2CC(C)(C)NC(C)(C)C2)ccc1F	9	111	-12	i	1.2	0.7	100
CN1CCN(C(=O)c2ccccc2-c2nc(-c3ccc(Cl)cc3)no2)CC1	-188	127	3	i	1.1	-2.5	101
COc1ccc(CCNC(=O)COC(=O)c2ccc(N3CCCC3=O)cc2)cc1OC	.	.	-5	i	1	.	106
Clc1ccc(CSc2nnc(CN3CCOCC3)n2-c2ccccc2)cc1Cl	-37	69	-2	i	0.96	-1.3	103
CC(C)OC(=O)NC(C)(C)COC(=O)Nc1cccc(Cl)c1	-95	81	0	i	0.94	-2.5	101
O=C(CN1C(=O)/C(=C\c2ccccc2Cl)Oc2ccccc21)NCc1cccnc1	-20	91	6	i	0.96	.	100
CC(C)n1c(N)c(C#N)c2ccc([N+](=O)[O-])cc2c1=O	.	.	.	i	1	.	97
C#CCOCCOCCOCCNc1nc(N2CCN(C(=O)[C@H](Cc3cc4ccccc4[nH]3)n3cc([C@@H](N)C(C)CC)nn3)CC2)nc(N2CCN(C(=O)[C@H](Cc3cc4ccccc4[nH]3)n3cc([C@@H](N)Cc4ccc(O)cc4)nn3)CC2)n1 (some centres undefined)	.	.	11	.	.	.	96
CCOc1ccc(C(=O)N2CCCC(c3nc(-c4cccs4)no3)C2)cc1 (centres undefined)	.	.	.	i	0.86	.	96
CCOc1ccc(C(=O)Nc2cc(C)ccn2)cc1	.	.	-1	i	0.95	.	98
CCN(CC)C(=O)CSc1nc2ccccc2c(=O)n1CC1CCCCC1	-9	98	-8	i	0.95	-1.2	100
CCOC(=O)N1CCC(NC(=O)c2cc3c(-c4ccc(Cl)cc4)nn(C)c3s2)CC1	.	.	-22	i	0.94	-2.3	81
CCCCOC(=O)/C=C\C(=O)OCCCC	.	.	.	i	0.77	.	106
CCOC(=O)C1=C(N)Oc2cc(C)n(CCc3ccc(OC)c(OC)c3)c(=O)c2C1c1cccnc1 (centres undefined)	55	56	-10	i	0.84	-0.3	83
Cc1c(C)c2cc(Cl)c(O)c(CN(C)C)c2oc1=O	-80	82	0	i	0.84	4.7	92
CCCCOc1ccc(C(=S)N2CCC(C(N)=O)CC2)cc1	.	.	-1	i	1.1	.	99
O=C(N1CCCCCC1)N1CCN(S(=O)(=O)N2CCCCC2)CC1	0	128	7	i	1.2	-2.2	100
COC(=O)c1cccc(Cn2nnc3ccccc3c2=O)c1	39	223	-11	i	0.86	-1.5	93
COC(=O)c1ccccc1NC(=O)C1CCCC1	-39	68	-1	i	0.99	-2.5	101
O=C1CC(c2ccccc2)CC(=O)N1c1ccccc1	.	.	.	i	1	.	90
CCNC(=O)O/N=C(\C)c1sc(-c2ccccc2)nc1C	.	.	-2	i	0.95	-1.5	100
CC(=O)c1ccccc1OC(=O)c1ccc([N+](=O)[O-])o1	.	.	.	i	0.88	.	97
Fc1ccc(C(c2nnnn2C2CCCC2)N2CCN(Cc3ccccc3)CC2)cc1 (centres undefined)	.	.	-7	i	0.85	-0.4	102
Nc1nc(SCCN2C(=O)c3ccccc3C2=O)n[nH]1	-17	92	2	i	0.79	-1.2	101
Cc1cc(=O)n(C)c2ccccc12	.	.	8	i	0.97	.	101
COc1ccc(OCC(O)CN(C)C(=O)/C=C/c2cccc([N+](=O)[O-])c2)cc1 (centres undefined)	.	.	-5	i	0.92	.	103
COc1ccc(Cl)cc1NC(=O)N1CCN(CCc2ccccc2)CC1	-33	127	-1	i	0.84	-1.2	101
O=C(O)CCc1ccc(-c2ccc(F)cc2)n1CCC(=O)O	-156	108	-4	i	0.85	-0.6	82
O=C(Nc1cc(C(=O)N2CCCC2)ccc1N1CCCC1)c1ccccc1F	-114	80	-7	i	0.91	0.4	99
O=C(CCC(=O)Nc1cccc2ccccc12)N/N=C/c1ccco1	23	113	-6	i	0.99	0.1	107
COc1ccc(-n2c(=O)c3c4c(sc3n3c(C)nnc23)CC(C)CC4)cc1 (centres undefined)	-244	116	-7	.	.	-1.4	.
Oc1ccc(N=Cc2ccc(-c3cccs3)s2)cc1	.	.	-1	i	1.2	-3.2	102
Cc1ccccc1CSc1ccc2nnc(-c3ccccn3)n2n1	.	.	-4	i	1	.	103
CC1=NN(c2ccccc2)C(=O)/C1=C/c1ccc[nH]1	25	120	-6	i	0.96	-2.1	110
Cc1ccc(-c2cn(-c3ccc(SC(F)F)cc3)c3[n+]2CCC3)cc1	-11	119	0	i	0.94	1.3	97
CCc1nnc(NS(=O)(=O)c2ccc(NC(=O)c3ccccc3C)cc2)s1	-15	81	-4	i	0.92	.	102
Cc1ccc(NC(=O)C2=CCN(S(=O)(=O)c3ccc(F)cc3)CC2)cc1	-22	99	0	.	.	-0.9	101
CC(C)=CCC/C(C)=C/CCC(C)NCCN1CCNCC1 (centres undefined)	.	.	-1	i	0.92	-2.2	88
CSc1ccc(CN(C)CC(=O)Nc2ccc(NC(C)=O)cc2)cc1	18	47	4	i	0.98	.	100
O=C(CN1CCN(C(=O)c2ccco2)CC1)N1CCc2[nH]c3ccccc3c2C1	.	.	.	i	1.1	.	100

The closing 2 records of the part before come first, to join the parts:
SMILES	INS promoter inh	INS promoter inh cell count	PKD1 inh	HSV replic up	HSV replic up primary fold	GALR2 agonist	RGS16-Gao
CSc1ccc(CN(C)CC(=O)Nc2ccc(NC(C)=O)cc2)cc1	18	47	4	i	0.98	.	100
O=C(CN1CCN(C(=O)c2ccco2)CC1)N1CCc2[nH]c3ccccc3c2C1	.	.	.	i	1.1	.	100
O=[N+]([O-])c1cccc(/C=C/c2nc[nH]c2[N+](=O)[O-])c1	.	.	.	i	1	.	110
OCC1(CCc2ccccc2)CCN(Cc2ccccc2Cl)CC1	.	.	0	i	0.89	.	103
O=[N+]([O-])c1ccc2n[nH]nc2c1	-21	154	8	i	1	-1.2	103
COc1ccc(NC(=O)c2ccc3c(c2)C(=O)N(Cc2cccnc2)C3=O)cc1	43	139	-3	i	0.96	-1.1	107
O=c1c[n+]([O-])c2ccccc2n1OCc1ccccn1	-59	129	-9	?	.	-0.3	51
CC(C)CN(C(=O)COC(=O)c1c(Cl)ccc(Cl)c1Cl)C1CCS(=O)(=O)C1 (centres undefined)	.	.	-9	i	0.98	.	101
COC(=O)c1sc2ncccc2c1OCc1ccc(Cl)cc1Cl	10	98	-18	i	0.88	-1.8	101
O=C1c2ccccc2-c2cccc(C(=O)N3CCN(C(=O)c4ccccc4)CC3)c21	.	.	3	i	0.88	.	99
CC1=NN(C(=O)Cc2ccc([N+](=O)[O-])cc2)C(O)(c2ccccc2)C1 (centres undefined)	13	66	-9	i	0.98	0.6	101
O=C(CCCCCC(=O)N(CCO)CCO)N(CCO)CCO	.	.	-5	i	0.87	-0.3	110
CCOc1ccc(-n2c(=O)c3c4c(sc3n(CC(=O)NCC3CCCO3)c2=O)CCCC4)cc1 (centres undefined)	33	109	4	i	0.95	.	112
COc1ccc(N2C(=O)N(Cc3cccc(F)c3)c3ccccc3S2(=O)=O)cc1	-64	45	-5	i	0.98	.	127
Nc1nn(-c2cccc(F)n2)cc1-c1ccc(Cl)cc1	.	.	-6	i	0.97	.	104
COc1ccc(CCn2c(C)ccc2C)cc1OC	-92	122	1	i	0.99	-0.9	66
O=C(Cc1ccccc1)Nc1c(Cl)ccc2nsnc12	.	.	.	i	1	.	89
CCOC(=O)Cc1csc(NC(NC(=O)OCC)(C(=O)OCC)C(F)(F)F)n1 (centres undefined)	38	88	-4	i	1.2	-1.3	109
CC1(C)CC(=O)C=C(NNC(=O)c2ccc(N)cc2)C1	-70	53	-13	i	1	0.8	100
CCCOc1ccc(N2C(=O)C3ON(c4ccccc4)C(c4ccc(O)c(OC)c4)C3C2=O)cc1 (centres undefined)	27	186	-4	.	.	0.4	105
Cc1sc(NC(=O)/C=C/C(=O)O)c(C(N)=O)c1-c1ccc(C(C)(C)C)cc1	-5	116	-2	i	0.93	-1.1	100
COC(=O)c1ccc(OC(=O)c2ccc(OC)cc2)c(OC)c1	.	.	1	i	0.89	.	91

Limited to INS promoter inh cell count, RGS16-Gao and HSV replic up primary fold, for some of the entries so far:
SMILES	INS promoter inh cell count	RGS16-Gao	HSV replic up primary fold
Cc1sc(NC(=O)/C=C/C(=O)O)c(C(N)=O)c1-c1ccc(C(C)(C)C)cc1	116	100	0.93
COC(=O)c1ccc(OC(=O)c2ccc(OC)cc2)c(OC)c1	.	91	0.89

New compounds follow
SMILES	INS promoter inh	INS promoter inh cell count	PKD1 inh	HSV replic up	HSV replic up primary fold	GALR2 agonist	RGS16-Gao
Cc1ccc(NC(=O)CSc2n[nH]c(-c3ccco3)n2)cc1	-67	99	-2	i	1	.	108
O=[N+]([O-])c1ccc(N2CCN(CCO)CC2)cc1Sc1ccccn1	.	.	-7	i	0.95	.	96
C=CCOC(=O)C1=C(C)NC(C)=C(C(=O)OCC=C)C1c1cn(-c2ccccc2)nc1-c1ccco1	-106	87	2	i	0.78	5.1*	93
CCOC(=O)c1cc(C(=O)Nc2ccccc2F)nn1C	12	100	2	i	0.87	-1.0	89
CC(C(=O)N1CCCc2ccccc21)N1C(=O)c2ccccc2C1=O (centres undefined)	31	95	4	i	1.1	-0.6	89
O=C(COC(=O)c1cc(=O)[nH]c2ccc(Br)cc12)c1ccccc1	20	77	1	i	1	.	137
Cc1c(Cl)ccc2sc(NC(=O)CN3C(=O)c4ccccc4C3=O)nc12	35	139	-8	.	.	-1.2	79
O=C(NCCCN1CCCC1=O)c1cccs1	-3	101	-17	.	.	-1.3	101
CC(=O)Oc1cccc(N2C(=O)CC(Nc3ccc(N4CCOCC4)cc3)C2=O)c1 (centres undefined)	-14	175	-8	i	0.93	-0.6	97
O=C(Cn1nc(-c2ccccc2Cl)ccc1=O)Nc1ccccc1-c1ccccc1	-58	101	-1	i	0.98	.	104
CC(=O)OC(C(=O)NCCc1ccccc1)c1cccnc1 (centres undefined)	-3	93	-6	i	0.96	-0.7	96
Cc1nc2ccc(NC(=O)c3ccc(S(=O)(=O)N(C)C)cc3)cc2s1	-17	65	-1	i	0.86	.	101
CCOc1ccc(C(=O)NCCCn2ccnc2)cc1	54	102	-4	i	1	-3.4	101
CNC(=O)C(=O)N/N=C/c1ccccn1	.	.	5	i	1	.	109
Cc1ccc(/C=C/C(=O)NC(C)c2ccccc2)cc1 (centres undefined)	54	88	-5	i	1	-1.6	104
COc1cc2nc(C3CC3)n(NC(=O)c3ccc(F)cc3)c(=O)c2cc1OC	.	.	-11	i	0.87	0.0	100
COc1ccccc1NC(=O)c1ccc2nc(N3C(=O)CCC3=O)sc2c1	-19	115	-6	i	0.73	-1.8	104
CCOc1cc(S(=O)(=O)Nc2ccc(Cl)cn2)ccc1F	16	80	-5	i	0.95	-0.6	105
COC(=O)C1=C(C)OC(N)=C(C#N)C1c1ccc(OC)c(CSc2ccccn2)c1 (centres undefined)	27	130	-3	i	1	0.3	95

Sorted by the number under PKD1 inh (highest first): five of the compounds above
canonical_smiles | PKD1 inh
CNC(=O)C(=O)N/N=C/c1ccccn1 | 5
COC(=O)C1=C(C)OC(N)=C(C#N)C1c1ccc(OC)c(CSc2ccccn2)c1 (centres undefined) | -3
Cc1ccc(/C=C/C(=O)NC(C)c2ccccc2)cc1 (centres undefined) | -5
COc1ccccc1NC(=O)c1ccc2nc(N3C(=O)CCC3=O)sc2c1 | -6
COc1cc2nc(C3CC3)n(NC(=O)c3ccc(F)cc3)c(=O)c2cc1OC | -11
